# From PubChem
# MgrA-DNA mod – S. aureus MgrA-DNA binding modulation; fluorescence polarization; actives 0.13% (n = 84,000); inhibition, %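 (about 10 µg/mL by stock and volumes)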;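 active = above 50% in either of two replicates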;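 note: 0% = protein plus DNA without compound and 100% = DNA alone without protein; higher means less MgrA bound to DNA so lower polarization; one replicate is shown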
# S aureus helic – S. aureus DNA helicase inhibition; actives 0.05% (n = 120,000); inhibition, %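 (tested at about 80 µM)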; purified S. aureus helicase, fluorescence unwinding assay; about half of the hits fall short of the stated cut; AID 485395;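 active = both duplicates at 50% or more, or one of them with a favoured structure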;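 note: 0% = mean of negative control wells and 100% = mean of positive control wells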
# Starred values were filed as active, the others as inactive; . = no result given. A portion of the library; count on the stated rates, not on these rows.
compound	MgrA-DNA mod	S aureus helic
CN1c2ccc(Cl)cc2C(=O)NC1c1ccc(C#N)cc1 (stereo not drawn)	1.3	.
CC(=O)Nc1ccc(S(=O)(=O)NNC(=S)NCc2ccco2)cc1	-1.2	18.0
Cc1nc(C2COc3ccccc3O2)ncc1S(=O)(=O)c1ccc(Cl)cc1 (stereo not drawn)	1.6	.
O=C(c1cc2cc(Cl)cc(Cl)c2oc1=O)N1CCCCC1	-2.9	7.0
CC(=O)OCc1ccc(COC(C)=O)c(OC(C)=O)c1OC(C)=O	.	7.0
COC(=O)c1cc(S(=O)(=O)NCc2csc(-c3cccs3)n2)oc1C	.	-11.0
Cc1noc(C)c1CSc1nc(-c2ccccc2)cs1	.	-11.0
Cc1noc2[nH]c(=O)cc(C(F)(F)F)c12	-1.9	-12.0
Cc1ccccc1Cn1cc(NC(=O)c2cc(C3CC3)on2)cn1	.	-7.0
CCC1(C)OC(=O)N2CCc3cc(OC)c(OC)cc3C21C (stereo not drawn)	.	4.0
O=S(=O)(NC1CCCCC1)c1cc(Cl)ccc1Cl	-0.2	-3.0
Cc1cc(C)nc(NS(=O)(=O)c2ccc(NC(=O)c3cc([N+](=O)[O-])cc([N+](=O)[O-])c3)cc2)n1	0.6	.
O=C(N/N=C/c1ccccc1O)C1SCCCS1	.	21.0
O=C(CCCn1ncn2c(cc3occc32)c1=O)N1CCc2ccccc2C1	.	-8.0
O=C(Cc1nc2ccccc2[nH]1)NCc1ccco1	2.0	-23.0
COc1cscc1C(=O)NC1(O)C(=O)c2ccccc2C1=O	-2.2	.
CC(C)n1cnc2cc(NC(=O)c3ccco3)ccc21	-1.1	-2.0
O=C(CN1CCCc2ccccc21)N1CCCC1c1ccc2c(c1)OCCCO2 (stereo not drawn)	.	-1.0
CC(C)(C)OC(=O)N1CCN(c2ccc(NC(=O)c3cc4ccccc4oc3=O)cc2)CC1	-1.0	11.0
Cc1cccn2c(=O)cc(CN3CCCC3c3ccc4c(c3)OCCO4)nc12 (stereo not drawn)	.	6.0
COCc1nc(OC)c2c(C)c(C(=O)O)sc2n1	.	-1.0
COc1cc(C(=O)OCCCn2c(=O)c3c(ncn3CCCN(C)C)n(C)c2=O)cc(OC)c1OC	.	16.0
CCOC(=O)c1cc(-c2ccc(S(=O)(=O)NCCN3CCC(C)CC3)s2)on1	.	7.0
CC(=O)Nc1cccc(C(=O)N2CCN(Cc3ccc4c(c3)OCO4)CC2)c1	-0.4	-17.0
COc1ccc(C(=O)Nc2ccccc2C(=O)NCc2ccco2)cc1	0.6	14.0
CCOc1ccc(NC(=O)CN(C)c2ccc(S(=O)(=O)N3CCN(C)CC3)cn2)cc1OCC	.	-4.0
CCOC(=O)C1CCN(c2ncnc3c2cnn3-c2ccccc2)CC1	-2.4	12.0
Cc1csc(=O)n1CCN(C)CC(=O)Nc1ccc(Cl)c(C(F)(F)F)c1	.	-3.0
COc1ccc(-c2noc(N3CCCC(C(=O)Nc4cccnc4)C3)n2)cc1 (stereo not drawn)	0.8	1.0
O=C(CN1CCN(c2ccc(S(=O)(=O)N3CCCC3)cn2)CC1)Nc1ccc(Cl)c(C(F)(F)F)c1	.	0.0
O=C(Nc1cc(C(F)(F)F)ccc1N1CCCCC1)c1cc[n+]([O-])cc1	-2.0	-13.0
FC(F)(F)c1cccc(NN=C2C3CC4CC(C3)CC2C4)n1	.	-15.0
O=C(CSc1nnc2sc3ccccc3n12)NC1CCCC1	.	-9.0
COC(=O)c1cc2c(cc1NC(=O)CSCCc1ccccn1)OCO2	.	1.0
COC1CCCCC1NS(=O)(=O)c1ccc(Cl)cc1 (stereo not drawn)	.	-25.0
Cc1ccc2nc(/N=C/c3ccc(Cl)cc3Cl)sc2c1	0.3	5.0
Cc1cc(Sc2c([N+](=O)[O-])cc(C(F)(F)F)cc2[N+](=O)[O-])c(Cl)cc1Cl	-1.9	.
COc1ccc(C(C)(O)C(CN2CCOCC2)c2ccccc2)cc1 (stereo not drawn)	.	19.0
COc1ccccc1CNC(=O)c1cc2sc(Cl)cc2n1C	.	8.0
C1CN(C(N2CCOCC2)N2CCOCC2)CCO1	-1.1	17.0
O=[N+]([O-])c1ccc(Oc2c(Cl)cccc2Cl)c(Cl)c1	-1.0	.
CC/C(=N\NC(=O)c1ccc(N)cc1)c1ccc(Cl)cc1	.	-18.0
Cc1nc2ccc(NC(=O)C3CCCCC3)cc2c(=O)n1Cc1ccccc1	-4.8	-3.0
OCc1cncn1Cc1ccccc1	-0.5	.
Cc1cc2occ(CC(=O)OCc3cc(=O)n4c(n3)sc3ccccc34)c2cc1C	.	3.0
O=S(=O)(NC1c2ccccc2Oc2ccccc21)c1cccs1	.	-12.0
O=C(/C=C/c1ccco1)N(Cc1ccccc1)c1ccccc1	.	-10.0
Cc1ccc(NS(C)(=O)=O)cc1N=Cc1cc(Cl)cc(Cl)c1O	9.2	.
O=C(/C=C/c1ccccc1)OCc1cncs1	0.3	.
C=CC[n+]1cccnc1N	0.7	-12.0
O=C1OCCC1Sc1nc2sc3c(c2c(=O)[nH]1)CCC3 (stereo not drawn)	.	21.0
COc1ccc(S(=O)(=O)n2ccc(C)n2)cc1C	.	-22.0
Cc1nc2nc(CNC(=O)OC(C)(C)C)nn2c(C)c1CCC(=O)Nc1ccc(F)cc1	-2.9	-4.0
NC(=O)c1ccc(-c2ccccn2)s1	0.7	.
O=C(c1ccccn1)N(Cc1ccco1)C1(C(=O)NC2CCCC2)CCCCC1	.	1.0
Cc1cc(CNC(=O)c2cc(F)cc3c2OCOC3)no1	-2.3	.
CN(CCCC(=O)O)c1nc(-c2ccc(F)cc2)cs1	-0.7	7.0
CCCCC1C2=C(CCCC2=O)OC2=C1C(=O)CCC2	.	5.0
COC(=O)c1ccc(C)c(NS(=O)(=O)c2ccc3c(c2)c(=O)sn3C)c1	.	-5.0
CCOC(=O)c1cnc(-c2cccs2)nc1Nc1ccc(Cl)cc1	-0.9	.

# Next part
compound	MgrA-DNA mod	S aureus helic
Oc1[nH]c(=S)sc1/C=N/c1nc2ccccc2[nH]1	.	-77.0
COc1ccc2c(c1)c1nc(N(C)C)nc3c1n2CCN3C	8.7	-69.0
CC(=O)Nc1ccc(-c2nc(-c3ccccc3)c3cc(C)ccc3n2)cc1	0.5	.
O=C(c1ccc(C23CC4CC(CC(C4)C2)C3)o1)N1CCOCC1	-0.3	11.0
CCSc1nnc2c(n1)OC1(Nc3ccccc3-2)C(=O)Nc2ccc(Br)cc21 (stereo not drawn)	4.6	4.0
COc1ccc(N(CC(=O)NCc2ccc(Cl)cc2)S(=O)(=O)c2ccccc2[N+](=O)[O-])c(OC)c1	-1.4	.
COc1cc(S(=O)(=O)N2CCOCC2)ccc1NC(=O)COC(C)=O	.	5.0
COc1ccc(-c2ccc(SCC(=O)N3CCC(C)CC3)nn2)cc1	0.1	11.0
Cn1c(=O)c(C#N)nn(-c2ccccc2)c1=O	.	5.0
O=C(Oc1cc(=O)n2c3c(cccc13)CCC2)c1ccccc1	-3.5	.
CC(=O)c1cnn(-c2ccccc2)c1C	-3.7	.
Cn1c(=O)c2c(nc(SCC(=O)NC(C)(C)C)n2C)n(C)c1=O	1.3	4.0
Cc1nnsc1C(=O)N1CCN(c2cc(C(F)(F)F)ccn2)CC1	3.6	.
Cc1noc(C)c1CSc1ncccc1C(=O)N1CCc2ccccc21	.	4.0
CN1CCCCC1CC(=O)O (stereo not drawn)	-0.4	-4.0
CC(C)Cc1nc2ccccc2n1Cc1ccccc1	0.1	16.0
CCC(C)NC(=O)c1c[nH]c2ccc(S(=O)(=O)N(CC)c3ccccc3)cc2c1=O (stereo not drawn)	.	4.0
Cc1cc(C)c2nc(N3CCN(CCO)CC3)cc(C)c2c1	.	-2.0
O=c1c2cc3c(cc2[nH]c(=S)n1C1CCN(Cc2ccccc2)CC1)OCO3	.	2.0
COc1ccc(CCNC(=O)CN2C(=O)CCS(=O)c3ccccc32)cc1OC (stereo not drawn)	.	-15.0

# Given with each value named: part of the list above.
Structure: Oc1[nH]c(=S)sc1/C=N/c1nc2ccccc2[nH]1
- MgrA-DNA mod: .
- S aureus helic: -77.0
Structure: COc1ccc2c(c1)c1nc(N(C)C)nc3c1n2CCN3C
- MgrA-DNA mod: 8.7
- S aureus helic: -69.0

# (cont.)
compound	MgrA-DNA mod	S aureus helic
Cc1ccc(N=C2NC(=O)C(Cc3cccc(C(F)(F)F)c3)S2)cc1 (stereo not drawn)	-3.1	-3.0
O=C1C=C(O)c2cccc3cccc1c23	28.1	-15.0
O=C(OCC(=O)N1CCCC1=O)c1cccc(-n2cccc2)c1	.	4.0
C(=N\c1nccs1)/c1cccnc1	0.9	-26.0
NS(=O)(=O)c1ccc(CCNC(=O)c2cc(=O)c3ccccc3o2)cc1	.	9.0
O=C(O)CCCOc1ccccc1F	-3.2	4.0
CSc1nc2cc(-c3ccc(Cl)cc3)nn2c(N)c1C#N	-2.8	.
N#Cc1c(C(F)(F)F)cc(-c2cccs2)[nH]c1=O	3.2	.
c1cncc(-c2nc3ccccc3o2)c1	.	9.0
O=C(Nc1ccccc1C(=O)NCc1cccnc1)c1ccc(Cl)cc1	-0.9	.
CC(C)=C1C2C=CC1c1ccccc12	.	-7.0
CN(C)CCNC(=O)c1cc2c(Cl)nc3ccccc3c2s1	7.2	15.0
Oc1ccc2oc3c(c2c1/C=N/n1cnnc1)CCCC3	2.1	.
O=C(CSC1=NC=NC2N=CNC12)N1CCN(Cc2ccc3c(c2)OCO3)CC1 (stereo not drawn)	.	2.0
Cc1ccccc1N=c1scc(-c2ccc3c(c2)NC(=O)CO3)n1Cc1ccco1	.	-22.0
Cc1cc(F)ccc1S(=O)(=O)Nc1ccc(O)c(Sc2ncn[nH]2)c1	11.1	14.0
COc1cc(OC)c(NC(=O)NCCCN2CCC(N3CCCCC3)CC2)cc1Cl	.	27.0
CCOC(=O)C1CCN(S(=O)(=O)Cc2ccc(Cl)cc2)CC1	-0.3	5.0
O=S(=O)(Cc1ccccc1)Nc1nc2ccccc2s1	3.5	0.0
Cc1c(NC(=O)CCCN2C(=O)/C(=C\c3ccco3)SC2=S)c(=O)n(-c2ccccc2)n1C	.	19.0
Cc1ccccc1Nc1c(-c2ccc(N(C)C)cc2)nc2ccccn12	.	26.0
O=C(C1CC1)N1CCc2sccc2C1c1ccc(Cl)cc1 (stereo not drawn)	0.7	.
Cc1ccc(C(=O)CC(c2cccs2)S(=O)(=O)c2ccccc2)cc1 (stereo not drawn)	.	13.0
CC(=NCCN1CCOCC1)C1=C(O)c2ccccc2C1=O	5.5	13.0
COc1ccc(C(=O)N2CC(=O)Nc3ccccc32)cc1	1.3	8.0
O=c1c2ccccc2ncn1CCOc1ccc(CO)cc1	0.4	7.0
CC1CN(C(C)(C)C)CCC1(O)c1ccccc1 (stereo not drawn)	2.2	-10.0
O=S1(=O)CCN2C=CSC2=N1	.	5.0
Cc1ccc(-n2c(SCC(=O)c3cn(CCC#N)c4ccccc34)nnc2-c2ccccc2)cc1C	.	-11.0
CC1CC(C)CN(S(=O)(=O)c2ccc(C(=O)Nc3nc4ccc(Br)cc4s3)cc2)C1 (stereo not drawn)	-0.7	.
CSc1nnc2n1CCCN2	-2.0	.
Cn1c(=O)c2ccccc2n(CC(=O)Nc2ccc3c(c2)OCO3)c1=O	-1.4	5.0
OCCN(C=NC1=NN(c2ccccc2)CC1)CCO	-1.4	11.0
CCOC(=O)C1=C(C)NC(=O)C1CC(=O)O (stereo not drawn)	-7.3	-1.0
Cc1ccc(NC(=O)c2c(-n3c(C)cc(C=NO)c3C)sc3c2CCCC3)cc1	0.5	2.0
CN(CC(O)COCc1ccc2c(c1)OCO2)C1CCCCC1 (stereo not drawn)	.	19.0
CCC(CC)C(=O)OCc1ccc(C#N)cc1	4.2	5.0
O=c1[nH]ncc(N2CCCC2)c1Cl	.	-6.0
C(=C\c1ccccc1)/CSc1nc2ccccc2o1	-0.5	24.0
CC(C)[C@H](NC(=O)c1ccco1)C(=O)NC1CC1	.	11.0
CCNS(=O)(=O)c1ccc(C)cc1	.	-16.0
O=C(O)c1[nH]c2ccccc2c1CNC1CCCC1	5.5	14.0
N#Cc1c(/N=C\c2ccc(O)cc2O)sc2c1CCCC2	.	-148.0
Cc1cccc(Oc2cc(C)nc3ccc(C)cc23)c1	-1.6	7.0
COC(=O)c1[nH]c(CN2NS(=O)(=O)c3ccccc3C2=O)c(C(=O)OC)c1C	.	-5.0
c1ccc2sc(NC3=NCN(C4CCCCCC4)CN3)nc2c1	1.4	1.0
COc1cccc(C2=NS(=O)(=O)N(C)C(C(=O)NCCN3CCOCC3)=C2)c1	.	-11.0
O=C(CCc1ccccc1)N1CCCN(C(=O)CCc2ccccc2)CC1	0.3	5.0
O=C1CN(C(=O)c2ccco2)C(c2ccccc2)c2cc(Br)ccc2N1 (stereo not drawn)	.	-22.0
COc1cc(C(=O)Nc2ccccc2C(=O)NCc2cccnc2)cc(OC)c1OC	0.7	-9.0
Cc1ccc(N2CC(NC(=O)NCCCc3ccccc3)CC2=O)cc1 (stereo not drawn)	.	-5.0
Cc1ccc(-c2nnc(SCC(=O)NC(=O)CN3CCCC3=O)o2)cc1C	.	14.0
O=C(CCn1c(=O)c2cccn2c2cccnc21)NC1CCCc2ccccc21 (stereo not drawn)	.	-4.0
Cc1ccc(-n2nc3c(c2NC(=O)C(C)C)CS(=O)(=O)C3)cc1	.	-13.0
COc1cccc(N(C)S(=O)(=O)c2ccc(C)c(C)c2)n1	.	-8.0
